High-throughput results: PubChem BioAssay, National Center for Advancing Translational Sciences (NCATS)
miR-21 FLuc: miR-21 reporter, rising signal; HeLa miR-21 FLuc reporter, luciferase, 48 h; Potency, µM (titrated, usually from 38.3 µM), for inactives: at the highest dose reporter change, positive = more light; 340,000 tested, under 10 active; AID 2288; active = well fitted rising curve with a large enough effect; inconclusive = small, poorly fitted or top-dose-only effect; inactive = no such curve, though single readings can be large or run the other way;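 further: % of control where 0% means no effect; miR-21 action dims this reporter so a rising signal means less miR-21 action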
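Using DMEM plus 10% FBS, HeLa miR-21-FLuc cells are incubated with test compounds (final up to about 40uM) for 48 hours; firefly luciferase signal is then imaged following reagent-mediated lysis.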
Rango-impB inh: Rango-importin beta binding inhibition; Q14974; Potency, µM (titrated, usually from 92.2 µM), inactives show at the highest dose inhibition of complex formation; Rango CFP/YFP FRET sensor + importin beta, 45 min; 340,000 compounds, 0.031% hits; AID 540263; active = rising FRET ratio curve, often small or poorly fitted; inconclusive = mostly compound fluorescence or quenching in the first reads; inactive = flat curves in all reads;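 further: potency means the concentration at half of the fitted maximal effect; 0% = DMSO wells and 100% = buffer wells lacking importin beta; nearly all actives have a fitted effect of over 15% in size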
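FRET biosensor (snurportin 1 IBB flanked by EYFP and cerulean), 50 nM, with compound 5 min, then 0.125 microM importin beta in PBS, 1 mM DTT, 0.02% Tween-20, 0.1% BSA. CFP/YFP ratio read after 45 min at room temperature; pre-read flags interference.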
Rango release inh: inhibition of RanGTP-driven Rango-importin beta dissociation. Biochemical FRET Rango-importin beta, RanGTP-induced dissociation. O95149+P62826. 340,000 compounds, 0.071% hits. Potency, µM (highest dose often 46.1 µM), without a hit: at the top dose activity change, negative = inhibition. AID 540253; active means falling FRET ratio curve, often poorly fitted, with flat reads before Ran was added; inconclusive means other falling curves, or compound fluorescence or quenching; inactive means flat or rising ratio curve;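 further: potency means the concentration at half of the fitted maximal effect; % of control where 0% means no effect; nearly all actives have a fitted effect of over 45% in size; -100% = wells without RanGTP and RCC1; the record marks most hits as doubtful in a second field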
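Rango FRET biosensor (snurportin-1 IBB flanked by N-terminal EYFP and C-terminal CFP10) at 0.1 uM, with 0.25 uM importin beta in PBS, 1mM DTT, 0.02% Tween-20, 0.1% BSA. 0.6 uM Ran, 2mM GTP and 0.2 uM RCC1 were then added for 45 min at room temperature. Inhibition read as loss of FRET rise.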
GLA inh pH 4.5: blocks human alpha-galactosidase A at pH 4.5; P06280; purified enzyme, 4-MU-alpha-Gal fluorescence, pH 4.5; activity change, negative = inhibition, % at 105 µM; 230,000 tested, under 10 active; AID 1467; inconclusive = small, poorly fitted or top-dose-only inhibition, or a rising curve; inactive = flat fitted curve, though single readings scatter; no compound was filed as active;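 further: 0% = full activity with enzyme and -100% = basal without enzyme; dose as in the result columns while the protocol names 77 µM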
Target sequence (P06280 whole entry, looked up): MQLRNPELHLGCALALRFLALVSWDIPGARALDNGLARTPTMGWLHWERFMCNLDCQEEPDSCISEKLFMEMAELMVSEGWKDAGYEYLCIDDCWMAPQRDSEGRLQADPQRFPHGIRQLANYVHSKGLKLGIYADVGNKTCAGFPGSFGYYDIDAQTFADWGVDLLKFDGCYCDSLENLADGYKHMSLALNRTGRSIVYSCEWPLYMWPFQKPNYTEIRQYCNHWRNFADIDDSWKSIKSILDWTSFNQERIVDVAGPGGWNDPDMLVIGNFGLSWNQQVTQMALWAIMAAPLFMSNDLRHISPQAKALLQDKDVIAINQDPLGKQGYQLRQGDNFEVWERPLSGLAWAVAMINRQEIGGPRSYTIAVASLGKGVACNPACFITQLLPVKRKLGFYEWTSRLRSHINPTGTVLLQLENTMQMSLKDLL
Numbers without * were called inactive; u = inconclusive; x = no result given; & = joins results of further samples; [ ] = dose if it differs, or a comment. A portion of the library; count on the stated rates, not on these rows.

miR-21 FLuc,SMILES,Rango-impB inh,GLA inh pH 4.5,Rango release inh
x,Cc1ccc(S(=O)(=O)N2CCN(C(=O)COC(=O)Cc3c(F)cccc3Cl)CC2)c(C)c1,1.8%,x,3%
-7%,O=C(NC1=NCCS1)c1ccc(OCC2CCCO2)cc1 (stereo unspecified),0.6%,-5,8%
-4%,O=C1C(c2ccc(F)cc2)N(Cc2ccc3c(c2)OCO3)C(=O)CN1C1CCCC1 (stereo unspecified),u,4,0%
-1%,Cc1nc(N2CCN(S(=O)(=O)c3cccc4nonc34)CC2)c2c3c(sc2n1)CCCC3,4.5%,-9,-2%
x,Cc1nc(SCc2nc3c(O)cccc3[nH]2)c2oc3ccccc3c2n1,1.6%,x,4%
0%&-1%,CCC(C)NC(=O)Cn1ccc2cc(S(=O)(=O)N3CCCCCC3)ccc21 (stereo unspecified),-0.1%,x,9%
-10%,COc1ccc(N2C(=O)CSC2c2cccs2)cc1 (stereo unspecified),2.1%,4,1%
-12%,COc1ccc(OCCCC(=O)N2CCCc3ccccc32)cc1,11%,0,-13%
-12%,O=C(NCc1ccc(N2CCCC2=O)cc1)c1cccc(Cl)c1,-1.0%,x,-12%
-12%,COC(=O)C1=C(N)OC2=C(C(=O)CCC2)C1c1cccs1 (stereo unspecified),1.1%,4,8%
-8%,COc1cccc(C2N(c3ccc(Cl)cc3)C(=O)C3CCCN32)c1 (stereo unspecified),1.0%,-1,16%
-6%,CN(Cc1ccccc1)C(=O)CCC1CCN(C(=O)CC2=CCCCC2)CC1,0.1%,x,5%
-23%,Cc1ccc(OCc2nc(C#N)c(NCc3ccco3)o2)cc1,3.2%,1,5%
-44%,O=C(Cn1ccsc1=NC(=O)C(F)(F)F)c1ccccc1,u,3,5%
-2%,CC(C)=CCN1CCN(CCCn2cccn2)CC1CCO (stereo unspecified),0.5%,1,7%
-4%&-13%,COc1ccc(S(=O)(=O)NC(C)C)cc1-n1cnnn1,9.7%,1,-15%
4%,COc1cc2[nH]c(C(=O)Nc3ccc4c(c3)OCCO4)cc2c(OC)c1OC,-5.1%,x,-7%
-13%,COc1ccc(CCC(=O)N/N=C\c2cccs2)cc1,-2.0%,-6,-1%
-6%,CCC(C)NCCOCCOc1ccc(Cl)c(C)c1C (stereo unspecified),-4.1%,-8,-3%
0%,O=C(CCN1CCCCC1)NNC(=O)C12CC3CC(CC(C3)C1)C2,2.0%,3,8%
-4%,Cc1onc(-c2ccccc2Cl)c1C(=O)NNC(=O)c1ccc(F)cc1,-3.3%,x,1%
1%,Cc1cc(=O)oc2cc(OCC(=O)NCCCN3CCCC3=O)ccc12,3.0%,x,-21%
-1%,Cc1cc(C)n2nc(C(=O)N3CCN(c4ccc([N+](=O)[O-])cc4)CC3)nc2n1,-1.5%,-2,1%
11%,CCOC(=O)c1c(NC(=O)C2COc3ccccc3O2)sc2c1CCN(Cc1ccccc1)C2 (stereo unspecified),0.1%,-5,-23%
x,CCC(C)c1ccccc1N1CC(C(=O)N2CCN(S(=O)(=O)c3cccc([N+](=O)[O-])c3)CC2)CC1=O (stereo unspecified),0.9%,x,1%
-8%,Cc1oc2c(C)c(O)ccc2c(=O)c1N1C(=O)c2ccccc2C1=O,5.3%,-7,39%
-3%,Cn1c2c(c(=O)n(C)c1=O)C(CC(=O)Nc1ccccc1)C(=O)N2 (stereo unspecified),-1.2%,-7,2%
-16%,Cc1ccccc1-c1nnc(SCCC(=O)N2CCOCC2)o1,-0.7%,-7,-7%
18%,Cc1onc(-c2ccccc2Cl)c1C(=O)N(C)C1CCCCC1,-7.8%,-4,-14%
-5%,O=C(CSc1nnc(-c2cccnc2)n1-c1ccccc1)Nc1ccccc1,0.6%,0,1%
x,COc1ccc(NC(=O)CN(C)C(=O)c2cccc(S(=O)(=O)N3CCN(c4ccccc4)CC3)c2)cc1,4.1%,x,0%
x,COc1ccc(NC(=O)CN(C)C(=O)c2ccc(NS(=O)(=O)c3cccc([N+](=O)[O-])c3)cc2)cc1,0.9%,x,12%
5%,CCc1cccc(NS(=O)(=O)c2ccc3c(c2)CCC(=O)N3)c1,0.9%,-3[21.1 µM],14%
-5%,O=C(NC1CCCCC1)C(c1ccc(F)cc1)N(Cc1ccccc1)C(=O)CN1C(=O)c2ccccc2S1(=O)=O (stereo unspecified),-1.3%,3,13%
0%,CCOc1ccc(NC(=O)CSc2nc(N)c(-c3ccccc3)c(=O)[nH]2)cc1,3.4%,-5,5%
9%,COc1ccc(/C=C/c2c([N+](=O)[O-])c(=O)n(C)c(=O)n2C)cc1,0.3%,1,u
u,Cc1cc[n+](C(C)C(=O)c2ccc(-c3ccccc3)cc2)cc1 (stereo unspecified),-3.6%,5[21.1 µM],9%
x,COc1ccc(N(CC(=O)NCc2ccc3c(c2)OCO3)S(=O)(=O)c2ccc(O)c(C(=O)O)c2)cc1,-5.1%,x,-5%
2%,O=C(NCc1ccc(F)cc1Cl)C1CCN(S(=O)(=O)N2CCCCC2)CC1,0.4%,x,5%
-6%,O=C(Cc1ccccc1)NNS(=O)(=O)c1ccc(F)cc1,4.5%,-11,22%
-4%,CCSc1nnc(NC(=O)Cc2ccccc2OC)s1,-3.7%,-3,-8%
x,CC(NC(=O)COc1ccccc1)C(=O)N1CCN(c2ccc(F)cc2)CC1 (stereo unspecified),-0.4%,x,6%
-1%,Cc1cc(C(=O)N2CCCC(Nc3ccccc3)C2)c2ccc(F)cc2n1 (stereo unspecified),1.2%,x,-4%
1%,CC/C(O)=C1\C(=O)CCCC1=NCCc1nc2ccccc2[nH]1,x,3,x
-1%,CCN1CCN(CCCNC(=O)c2ccc(/C=C3/Oc4ccccc4N(Cc4cccc(C)c4)C3=O)cc2)CC1,0.3%,x,3%
x,Cc1c(NC(=S)NC(=O)c2ccccc2)c(=O)n(-c2ccccc2)n1C,-0.7%,x,4%
15%,COc1ccc(OC)c(CCNC(=O)c2ccccc2NC(=O)C2=C(C)OCCS2)c1,-0.1%,x,11%
0%,CCOC(=O)C1CCN(C(=O)c2ccc3c(c2)NC(=O)/C(=C\c2cccc(C)c2)S3)CC1,u,x,u
3%,CN1CCc2c(sc3c2C(=O)NC(c2cn(Cc4ccccc4)c4ccccc24)N3)C1 (stereo unspecified),u,3,u
-5%,CCn1c(CN2C(=O)CSc3ccccc32)n[nH]c1=S,-0.4%,10,4%
-2%,COc1ccc(N2CCN(c3ccc(NC(=O)c4ccc5c(c4)OCO5)cc3C#N)CC2)cc1,0.5%,-9,-5%
x,O=C1Nc2ccccc2C1=Nc1ccccc1-c1ccccc1,-0.5%,x,1%
1%,COc1ccc(C(=O)NCC(=O)NCC(=O)OCC(=O)c2ccc(C)cc2)cc1,1.4%,x,-1%
x,CCN(c1ccccc1)S(=O)(=O)c1ccc(C(=O)Nc2ccccn2)cc1,-3.0%,x,u
5%,O=C(CN(Cc1ccc(Cl)cc1)C(=O)CNS(=O)(=O)c1ccccc1)NCC1CCCO1 (stereo unspecified),0.3%,x,-1%
-2%,Cc1ccc(N2C(=O)c3cccc4cccc(c34)C2=O)cc1,-0.6%,4,28%
14%,O=C(CN1CCN(S(=O)(=O)c2ccccc2)CC1)Nc1ccccc1C(=O)c1ccccc1,u,-10,12%
-55%,N#C/C(=C\c1ccc(Sc2ccccc2)o1)c1nc2ccccc2[nH]1,u,1,u
-3%,Cc1cccc(NC(=O)CCN2CCCCC2)c1,-2.3%,x,2%
x,COc1ccc(C(=O)c2c3ccc(OC)cc3[n+]([O-])n2CCCC(N)=O)cc1,u,x,10%

Single values from above:
COc1ccc(OC)c(CCNC(=O)c2ccccc2NC(=O)C2=C(C)OCCS2)c1 | Rango-impB inh: -0.1%
Cc1onc(-c2ccccc2Cl)c1C(=O)NNC(=O)c1ccc(F)cc1 | Rango-impB inh: -3.3%

Additional compounds:
miR-21 FLuc,SMILES,Rango-impB inh,GLA inh pH 4.5,Rango release inh
-3%,CC1CCCCC1NC(=O)CCC(=O)N1CCOc2ccc(Cl)cc21 (stereo unspecified),2.7%,x,2%
1%&0%,Cc1nc(SCCOc2ccccc2F)[nH]c(=O)c1Cc1ccccc1,-0.3%,-5[21.1 µM],-20%
-26%,COc1ccccc1NC(=O)Cn1nc(-c2ccc(Cl)cc2)c2ccccc2c1=O,1.9%,-4,3%
-2%,Cc1cc(C)cc(NC(=S)N2CCC(NC(=O)C3CC3)CC2)c1,0.0%,x,12%
1%,O=C(Nc1ccc(S(=O)(=O)Nc2ccnn2-c2ccccc2)cc1)C(F)(F)F,-1.5%,x,-5%
0%,O=C1NN=C(c2ccccc2)CC1c1c[nH]c2ccccc12 (stereo unspecified),8.5%,0,-12%
-4%,O=C(COC(=O)CCCSc1nc2ccccc2[nH]1)Nc1cccc(F)c1,-1.4%,-3,-2%
-1%,Cc1cccc(OCC(=O)Nc2ccccc2-c2ccccc2)c1,0.0%,-1,-3%
-3%,Cc1ccccc1NNC(=O)C(=O)NNc1ccccc1C,-0.7%,-1,-12%
-3%,c1ccc2sc(NN=C3CCCCCC3)nc2c1,4.5%,-23,0%
0%,Cc1onc(C(=O)NN)c1-c1csc(COc2ccc(Cl)cc2)n1,0.1%,-23,-3%
-10%,CC(C)Sc1nc2c([nH]1)c(=N)ncn2Cc1ccccc1,-5.6%,1,7%

Results in Rango release inh, miR-21 FLuc and Rango-impB inh, for some of the entries so far:
Molecule,Rango release inh,miR-21 FLuc,Rango-impB inh
CCN(c1ccccc1)S(=O)(=O)c1ccc(C(=O)Nc2ccccn2)cc1,u,x,-3.0%
O=C(CN(Cc1ccc(Cl)cc1)C(=O)CNS(=O)(=O)c1ccccc1)NCC1CCCO1 (stereo unspecified),-1%,5%,0.3%
Cc1ccc(N2C(=O)c3cccc4cccc(c34)C2=O)cc1,28%,-2%,-0.6%
O=C(CN1CCN(S(=O)(=O)c2ccccc2)CC1)Nc1ccccc1C(=O)c1ccccc1,12%,14%,u
N#C/C(=C\c1ccc(Sc2ccccc2)o1)c1nc2ccccc2[nH]1,u,-55%,u

(cont.)
miR-21 FLuc,SMILES,Rango-impB inh,GLA inh pH 4.5,Rango release inh
-8%,CCc1cc2ccc(C)cc2nc1SCC(=O)NNC(=O)c1ccco1,-3.1%,-13,-3%
1%,CCc1nnc(NC(=O)CSc2ncnc3scc(-c4ccc(C)cc4)c23)s1,-0.6%,-1,9%
x,COc1cccc(NC(=O)CN(C)C(C)C(=O)NC(C)c2ccc(Cl)cc2Cl)c1 (stereo unspecified),-3.0%,x,4%
11%,COc1cc(/C=C/C(C)=O)cc(OC)c1OC,-2.8%,-1,13%
-27%,COc1ccc(-c2nc(CN(CC3CCC(=O)N3)C(C)C)c(C)o2)c(C)c1C (stereo unspecified),0.9%,4,-11%
-18%,CCCc1nc2scc(-c3ccccc3)c2c(=O)n1N,0.5%,-3,16%
x,COc1ccc(OC)c(C2C/C(=N/O)C(C)C(c3cc(OC)ccc3OC)N2)c1 (stereo unspecified),-1.2%,x,7%
-10%,CCOC(=O)c1sc2nc(N3CCCC3)c3c(c2c1N)CC(C)(C)OC3,-0.5%,-2,-9%
-1%,c1ccc(-c2csc3ncnc(N4CCN(Cc5ccc6c(c5)OCO6)CC4)c23)cc1,3.2%,x,-5%
3%,COc1cc(S(=O)(=O)NCCN2CCOCC2)c(OC)cc1Cl,-0.2%,-11,-3%
0%,Cc1ccc(/C=C2\C(=O)ON=C2c2ccccc2)o1,-1.0%,4,-20%
-3%,CCOC(=O)N1CCN(C(=O)c2ccc(S(=O)(=O)c3ccc(C)cc3)c(NC(C)=O)c2)CC1,-4.3%,-13,14%
-49%,O=C(Nc1ccc2c(c1)nc1n2CCN(C2CCCCC2)C1)NC1CCCCC1,x,-3,x
x,Cc1nc2ccc(NS(=O)(=O)c3ccc(F)c(F)c3)cc2s1,u,x,-12%
x,Cc1ccc(C(=O)Nc2ccc(N3CCCCC3)cc2)cc1,0.4%,x,26%
-34%,Cc1cc(Nc2ccccc2)nc(-c2ccccc2O)n1,-3.0%,-2,-13%
4%,O=C1C(=O)N(CC(=O)N2CCCC2)c2ccccc21,-2.1%,-4,3%
-4%,O=C(Cc1ccc(Br)cc1)Nc1ccccc1Cl,-1.6%,3,-1%
